A1 inh: inhibitors of the anti-apoptotic protein A1, read as caspase activation; MEF A1-2A-BIM cells, Caspase-Glo 3/7 luminescence, 3 h; percent of clofoctol response, vehicle zero; caspase activation, % (no concentration beside the values); 330,000 compounds, 0.066% hits; AID 2462;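 active = over half of replicate activation scores above 10%, or exactly half above 10 with the replicate mean above 10; inconclusive = replicate mean below 10 yet half the replicates above 10; inactive = over half of replicates below 10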;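 note: wells of about 30 µL received 50 nL stock; many hits fall short of the cut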
T cruzi inh: T. cruzi replication inhibition; T. cruzi beta-gal in NIH3T3, luminescence, 90 h; inhibition, % (no concentration beside the values); AID 1885; 300,000 compounds, 1.4% hits;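 active = mean inhibition across valid replicates above about 55%, limit read from the data; inconclusive = mean below that limit but half or more replicates reach it; inactive = mean below it, under half of replicates reach it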;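 note: signal also drops with host cell toxicity which is not excluded here; 0% = plate median of DMSO wells and 100% = zero luminescence signal; higher percent means less beta-gal luminescence so fewer parasites; stock transfer was 50 nL into about 50 µL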
Calb FLC: C. albicans growth modulation with fluconazole; C. albicans CaCi-2 (fluconazole-resistant clinical isolate) + fluconazole, Alamar Blue growth, 48 h; growth inhibition, % (test concentration not listed); 300,000 compounds, 0.57% hits; AID 1979;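 active = most replicates above 75%; inconclusive = exactly half above 75%; inactive = most below 75%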;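 note: all wells also contain fluconazole at 8 µg/ml as a sub-toxic cotreatment; 0% = median of DMSO wells and 100% = median of geldanamycin control wells; wells of about 8 µL received 7.5 nL stock; the first replicate is given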
RanGTP-Impb inh: inhibitors of RanGTP-importin-beta interaction, primary screen, biochemical, FRET, CFP-Ran, YFP-importin-beta, homogeneous; AID 2216; inhibition, % (no concentration beside the values); cell-free CFP-Ran/YFP-importin-beta FRET ratio; 300,000 compounds, 1.1% hits;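 active = most replicates above 15%; inconclusive = exactly half above 15%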;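 note: 0% = DMSO wells and 100% = Ran loaded with GDP instead of GTP; wells of about 40 µL received 100 nL stock; the first replicate is given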
MLL AF4-AF9 inh: inhibitors of human MLL-AF4/AF9 interaction; P42568; AlphaScreen, biotin-AF4 peptide binding to FLAG-AF9; inhibition, % at 10 µM; 350,000 compounds, 0.47% hits; AID 651704;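 active = every replicate reaching a set inhibition limit, whatever the replicate mean, cut at about 25% in these data; inconclusive = mean inhibition reaches that limit but some replicates miss it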;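 note: 0% = plate neutral control median and 100% = total signal loss; the record names both 10 and 1 µM as test concentration; the first replicate is given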
Target sequence (P42568 whole entry, looked up): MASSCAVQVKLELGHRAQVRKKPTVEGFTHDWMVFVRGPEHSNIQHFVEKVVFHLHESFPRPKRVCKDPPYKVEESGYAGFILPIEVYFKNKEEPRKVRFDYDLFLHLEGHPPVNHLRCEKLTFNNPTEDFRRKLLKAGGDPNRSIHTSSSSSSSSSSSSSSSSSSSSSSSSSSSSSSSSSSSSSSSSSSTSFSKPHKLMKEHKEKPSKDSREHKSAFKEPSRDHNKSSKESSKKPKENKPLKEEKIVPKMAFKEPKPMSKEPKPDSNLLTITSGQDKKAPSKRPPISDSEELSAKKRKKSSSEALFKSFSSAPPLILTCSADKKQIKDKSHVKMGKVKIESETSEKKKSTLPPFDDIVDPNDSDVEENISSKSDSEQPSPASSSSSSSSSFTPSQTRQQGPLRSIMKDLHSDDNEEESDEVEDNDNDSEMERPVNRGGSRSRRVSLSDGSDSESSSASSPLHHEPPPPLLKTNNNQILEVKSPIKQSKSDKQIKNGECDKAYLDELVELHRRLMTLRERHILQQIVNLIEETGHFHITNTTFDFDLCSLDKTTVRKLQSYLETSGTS
Vif A3G: inhibitors of Vif binding to APOBEC3G peptide, primary screen, biochemical, TR-FRET, GST-Vif 1-94, biotin-A3G peptide, dose response retest (AID 1117319). 260,000 compounds, 0.57% hits. inhibition, %, or IC50 in µM where a hit was titrated. TR-FRET GST-Vif / biotin-A3G peptide binding; higher % means a stronger effect; test concentration not given here; strong numbers were not always called active;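 active = above the screen mean plus three standard deviations and confirmed in dose response; inconclusive = results disagree or hit not tested in dose response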;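 note: Vif residues 1-94 fused to GST binding biotinylated APOBEC3G peptide 110-148; 0% = full assay without inhibitor and 100% = GST in place of GST-Vif; retest series ran down from 100 µM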
Beta cell apopt: blocks beta cell apoptosis. 300,000 compounds, 0.8% hits. protection from apoptosis, % (test concentration not listed). INS-1E cytokine-induced death, ATP luminescence, 48 h; percent of positive-control rescue, neutral wells zero;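 active = all replicates at 75% or more, or half of them and the mean; inconclusive = half reach 75% but not the mean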;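 note: 0% = cytokine-treated negative control wells and 100% = positive control rescue; higher means more ATP so stronger rescue from cytokine killing; wells of about 40 µL received 100 nL stock; the first replicate is given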
rRNA inh HTS: inhibitors of bacterial rRNA selective over humanized ribosomes; E. coli WT GFP vs humanized-ribosome RFP mutants, fluorescence, 24 h; active compounds read low; DMSO median 0, no signal -100; GFP signal change (wild-type ribosome), % (concentration not given with the values); 350,000 compounds, 1.6% hits;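 active = significant combined selectivity score with lowered wild-type GFP, culture density cut under 30%, mutant RFP and density less affected; inactive = any of these conditions unmet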; note: one replicate is shown; some compounds called inactive have numbers as strong as hits
rRNA inh HTS OD600: further read-out of rRNA inh HTS, marked with its call; OD600 change, %; measured here: OD600 growth;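 optical density of the mix in the first replicate; 0 = DMSO median and -100 = no signal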
rRNA inh HTS RFP: also measured in rRNA inh HTS; calls as there; RFP signal change, %; measured here: RFP humanized mutant strains;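 first replicate; 0 = DMSO median and -100 = no signal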
Starred values were filed as active, the others as inactive; ? = inconclusive; . = not tested or not shown; & = joins results of further samples. These rows are one share of the data; count on the stated rates, not on these rows.

SMILES	A1 inh	T cruzi inh	Calb FLC	RanGTP-Impb inh	MLL AF4-AF9 inh	Vif A3G	Beta cell apopt	rRNA inh HTS	rRNA inh HTS OD600	rRNA inh HTS RFP
CN(C)S(=O)(=O)c1ccc(C(=O)N2CCCC2c2nc3ccccc3s2)cc1 (centres undefined)	0.2	-1.2	5.5	4.0	.	?	-1.5	.	.	.
COc1ccc(C(=O)N(Cc2ccccc2)c2cccc(C)c2)cc1	-0.5	8.8	0.9	-3.6	3.4	.	-5.1	-41.8	-68.3	-12.5
C/C(CC(=O)Nc1ccccn1)=N\NC(=O)C(=O)Nc1ccccc1C	0.2	3.6	-0.1	2.2	.	5.6%	0.0	.	.	.
COc1cccc(C2C(C(=O)c3cc4ccccc4o3)=C(O)C(=O)N2c2cc(C)on2)c1 (centres undefined)	-0.9	-7.6	49.3	?	-3.3	.	1.7	-13.8	-21.6	1.0
Cc1cccc(NC(=O)CSc2nc(N)cc(N)n2)c1	0.2	4.7	-1.4	-2.1	.	.	-2.3	.	.	.
O=C(NNc1cc(N2CCOCC2)nc(N2CCOCC2)n1)c1ccc(Cl)cc1Cl	-0.1	6.5	13.5	75.7*	.	0.3%	-0.6	.	.	.
CN(C)S(=O)(=O)Nc1cc(F)cc(F)c1	0.5	6.0	-16.3	1.0	-0.5	-5.5%	-2.8	3.5	16.0	0.6
Cc1cc(Nc2ncc(Cl)cc2Cl)n(-c2ccccc2C)n1	0.0	-28.8	-18.7	4.6	.	-5.9%	-2.1	.	.	.
COC1=C/C(=C/c2c(N)n3nc(CC(=O)N4CCCC4)sc3nc2=O)C=CC1=O	-0.2	-1.0	-4.5	?	-5.6	.	0.9	-3.0	-8.3	5.7
Cc1cccc2[nH]c(-c3ccc(NC(=O)c4ccco4)cc3)nc12	0.2	15.1	-3.9	4.2	.	-22.9%	13.1	.	.	.
O=C(NC1CCCCC1)c1ccc(S(=O)(=O)NCc2ccco2)cc1	1.2	-21.9	-0.1	?	.	28.6%	-1.6	.	.	.
O=C(Nc1ccc(F)cc1Cl)c1ccc2c(=O)n3c(nc2c1)CCCCC3	-1.0	3.3	-7.7	0.1	.	-12.1%	2.8	.	.	.
O=C(Oc1ccc(Nc2ncnc3ccccc23)cc1)c1cccnc1	.	-16.1	-10.2	0.4	-4.1	-6.9%	.	8.4	20.6	-2.9
CN(Cc1ccccc1)C(=O)CCC1CCN(C(=O)c2ccccc2C(F)(F)F)CC1	-1.4	9.4	-1.3	2.1	1.6	.	-0.7	-4.3	-9.7	8.9
Cn1c(=O)n(-c2cccc(Cl)c2)c(=O)n1C	-0.6	-10.1	-9.6	-3.9	.	-0.2%	-5.5	.	.	.
Cc1noc(/C=C/c2ccco2)c1S(=O)(=O)N1CCC(C(=O)N2CCc3ccccc3C2)CC1	0.0	44.1	-5.0	1.7	.	26.3%	8.2	.	.	.
CN(Cc1ccc(F)cc1)Cc1nc(-c2ccccc2)no1	1.1	-8.2	-9.8	-0.4	1.9	.	.	-17.9	-22.8	-6.8
C=CCOc1cccc(C2/C(=C(/O)c3ccc(Cl)cc3)C(=O)C(=O)N2CCN2CCOCC2)c1 (centres undefined)	-0.3	-5.0	-0.5	0.3	.	7.4%	-0.1	.	.	.
COc1ccc2cc3c(N)c(C(=O)NCc4ccco4)sc3nc2c1	-0.9	10.7	?	-4.0	.	-3.5%	1.8	.	.	.
OCC[C@@H]1C[C@H](O)[C@@H](O)[C@@]2(OCCCc3ccccc32)O1	0.3	-29.2	-2.9	?	0.6	.	-2.4	5.1	-6.0	7.4
COc1ccc(C2Nc3cc(OC)ccc3-n3cccc32)cc1 (centres undefined)	0.6	2.5	22.1	11.0	-19.5	1.8%	10.5	-22.2	-15.2	31.0
CN(c1ccccc1C(=O)Nc1ccc(F)c(F)c1)S(C)(=O)=O	0.5	-15.3	-0.5	?	-3.0	.	-6.0	8.2	1.5	1.3
Cc1nonc1NC(=O)CSc1nnc(-c2ccoc2C)n1CC(C)C	1.5	4.2	3.7	2.3	.	-7.3%	0.8	.	.	.
COc1cccc(-c2nn(C)c3sc(C(=O)NCc4ccc(C)o4)cc23)c1	2.0	23.1	-1.6	-1.9	.	22.4%	-18.5	.	.	.
COc1ccc(OC)c(NC(=O)COC(=O)CCNc2ccccc2OC)c1	-0.6	.	.	.	2.1	-7.5%	0.2	-20.5*	-9.9*	-0.1*
O=C1CN=C(Nc2cccc(C(F)(F)F)c2)N1C1CCCC1	0.1	6.3	25.7	-2.8	-2.2	1.6%&1.0%	-0.9	7.8	8.1	-3.3
CCCNc1nc(=S)n(-c2ccccc2)c(C)c1C(C)=O	-0.7	-5.0	-0.9	-1.7	-2.7	-5.6%	-0.1	-2.2	3.4	-1.1
Cc1ccc(NC(=O)O/N=C2\CCCCC2c2ccc([N+](=O)[O-])cc2[N+](=O)[O-])cc1 (centres undefined)	-0.2	28.4	1.0	-1.1	.	25.2%	4.0	.	.	.
O=C1C2CCCCN2C(=O)N1CCCCN1CCN(c2ccc(F)cc2)CC1 (centres undefined)	1.2	4.7	-18.6	-1.7	1.4	.	-2.0	10.7	12.4	0.8
CC1(C)S[C@@H]2[C@H](NC(=O)COc3ccccc3)C(=O)N2C1C(=O)OCc1cc2ccccc2n1S(=O)(=O)c1ccccc1 (some centres undefined)	1.3	7.0	4.0	-2.9	.	.	-2.2	.	.	.
CCNC(=S)NCc1ccc2[nH]c(C)cc2c1	.	5.2	-7.6	-0.7	27.0*	3.3%	0.2	-2.9	6.8	5.2
O=C(Oc1cccc(-n2cnnn2)c1)c1ccccc1	1.5	.	10.3	.	-2.7	-6.0%	-2.0	-1.7	2.7	-0.2
CCCn1c(SCN2C(=O)c3ccccc3C2=O)nc2cc(Cl)ccc2c1=O	-0.3	-20.6	16.7	5.1	.	-435.9%	7.5	.	.	.
C[C@@H](NC(=O)c1ncn(Cc2ccccc2)c1C(=O)N[C@H](C)c1ccccc1)c1ccccc1	-1.0	.	.	.	-1.3	.	-3.3	8.9	6.4	-0.4
COc1ccc(NC(=O)Nc2cccs2)cn1	-1.8	-0.8	-9.1	?	1.9	9.2%	-1.5	10.1	12.8	5.8
COc1ccc(N2C(=O)CCC(C(=O)NCc3ccccn3)C2c2ccc(F)cc2)cc1 (centres undefined)	-0.1	9.2	-2.6	-2.7	.	23.8%	0.5	.	.	.
COc1ccccc1Cn1c(=S)[nH]c2cc(C(=O)NCC3CCCO3)ccc2c1=O (centres undefined)	1.2	-5.8	0.1	-2.3	-1.1	-0.2%	-1.3	11.6	14.7	3.1
CCCCNS(=O)(=O)NC(=O)C1=C(N2CCCC2)COC1=O	2.3	.	.	.	-7.0	.	-4.7	4.4	1.1	25.5
CCNC(=S)NNC(=O)CCn1c2ccccc2c2ccccc21	0.0	-11.0	7.8	1.2	.	-5.7%	1.9	.	.	.
COC(=O)c1ccc(NC(=O)c2cccc(Cl)c2)o1	1.9	-20.4	-16.5	-2.5	.	8.3%	5.2	.	.	.
CCOc1ccc(CN(C)C(=O)CNC(=O)c2ccc3ccccc3c2)cc1OC	-0.2	-2.7	6.8	-2.7	-0.5	.	-3.9	0.0	-6.3	-0.8
O=C(CCC(=O)N1CCN(c2ccc(F)cc2)CC1)c1ccccc1	-0.7	-4.2	0.5	-3.1	-12.2	-5.1%	-3.5	-5.7	-1.4	0.3
COc1cccc(-c2ocnc2C(=O)Nc2ccc3c(c2)CCC3)c1	-0.4	12.3	4.7	-0.2	1.0	.	6.3	5.2	5.3	-1.5
CC(NC(=O)c1cc2c(cc1Cl)N1CCCCCC1=NS2(=O)=O)c1ccc(S(N)(=O)=O)cc1 (centres undefined)	0.0	2.4	-3.4	3.3	-28.6	0.4%	0.5	0.4	-0.7	-0.5
Cc1ccc(CNC(=O)CN(C(=O)C2(C)CC(=O)N=C3C=CC=CN32)c2ccccc2F)cc1 (centres undefined)	0.9	-10.7	13.5	0.1	2.2	.	3.0	9.6	4.8	-2.2
O=C(NCc1nnc(SCC(=O)N2CCCC2)o1)c1c(F)cccc1Cl	0.9	-6.7	-8.4	2.7	.	27.2%	1.0	.	.	.
CCCN(CC(=O)Nc1ccccc1OC)C(=O)CCC(=O)c1ccc(F)cc1	0.7	0.7	2.5	-1.1	-14.9	.	2.8	4.0	8.1	1.8
O=C(NCCN1CCOCC1)c1cn(CCc2ccccc2)nn1	-0.5	-5.5	-0.5	2.0	.	0.1%	-2.0	.	.	.
Cc1ccccc1-c1nc(CS(=O)(=O)CC(=O)NCc2ccc(F)cc2)c(C)o1	0.4	-10.8	-1.3	5.9	3.9	.	-0.5	6.6	-5.0	-1.4
O=C(O)CN1C(=O)c2ccc(Oc3ccc4c(c3)C(=O)N(CC(=O)O)C4=O)cc2C1=O	0.0	-15.2	2.6	3.7	-15.9	-2.5%	-1.8	8.0	0.2	1.7

Further compounds follow:
SMILES	A1 inh	T cruzi inh	Calb FLC	RanGTP-Impb inh	MLL AF4-AF9 inh	Vif A3G	Beta cell apopt	rRNA inh HTS	rRNA inh HTS OD600	rRNA inh HTS RFP
Cc1cc(C(=O)Nc2ccc3c(c2)OCCO3)co1	-4.1	-3.9	-0.9	-7.0	.	30.0%	1.0	.	.	.
c1ccc(-c2ccc(OCCOCCn3cncn3)cc2)cc1	-1.9	-0.4	-1.9	-3.5	.	2.3%	2.5	.	.	.
O=C(O)c1ccccc1Nc1ccc(OC(F)F)cc1	-0.9	-1.6	-5.1	-2.4	1.2	-2.1%	-0.6	-15.8*	-0.9*	4.4*
CC(C)N1CCN(Cc2ccc(C#CC(C)(C)O)s2)CC1CCO (centres undefined)	-0.1	5.8	0.2	-2.0	-0.8	10.7%	-2.4	20.4	18.4	1.4
CCOc1ccc(CCNC(=O)COC(=O)COc2cc(C)cc(C)c2)cc1OCC	0.2	1.0	4.3	1.1	-8.7	-0.3%	-0.2	-1.6	-0.9	-2.4
CCOC(=O)c1cccc(NC(=O)c2cnc3ccccc3n2)c1	-0.2	-6.2	-3.1	-0.6	.	20.1%	0.1	.	.	.
COC(=O)c1sccc1S(=O)(=O)Nc1ccc(S(N)(=O)=O)cc1	0.5	-1.3	-5.7	2.2	-6.1	-11.3%	-5.4	2.8	-4.2	-1.1
N#Cc1cc2c(nc1SCC(=O)Nc1sc3c(c1C#N)CCC3)CCCC2	0.6	18.2	2.6	-2.0	.	19.9%	0.8	.	.	.
COc1ccc(CN2CCN(Cc3ccccc3)C(CCO)C2)cc1OC (centres undefined)	-0.2	5.3	-8.8	3.9	-0.3	0.0%	0.9	-2.5	-0.1	-0.9
Cc1cccc(NC(=O)CCSc2nc(C)cc(C)n2)c1	0.5	-1.0	-0.9	-4.3	.	-9.4%	-1.3	.	.	.

Source: PubChem BioAssay (several laboratories)
